SARS PLP yeast – inhibitors of SARS-CoV papain-like protease in yeast | AID 485353 | Potency, µM (doses to about 32.9 µM), for inactives: at the top dose activity, positive = growth rescue | 0.19% of 330,000 active | S. cerevisiae expressing SARS-CoV PLpro, growth rescue; control for the full effect not named in the record; also: 0% is about no effect; nearly all actives have a fitted effect of over 55% in size; growth read by luminescence after 48 h
Cruzain noTriton – inhibitors of Trypanosoma cruzi cruzain without detergent; P25779; Potency, µM, without a hit: max response, negative = inhibition, actives largely listed as inhibitors; 2.3% of 200,000 active; AID 1476; purified cruzain, Z-FR-AMC fluorescence, no detergent; active = well fitted curve in the direction sought with a large enough effect; inconclusive = small, poorly fitted or top-dose-only effect, or another doubt; inactive = no such curve, though single readings can be large; an effect the other way counts as inactive or inconclusive;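 also: plate controls were enzyme without inhibitor for no effect and buffer without enzyme for full effect; nearly all actives have a fitted effect of over 40% in size; top concentration of the series not given in the record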
Target sequence (P25779 123-467 limits assumed): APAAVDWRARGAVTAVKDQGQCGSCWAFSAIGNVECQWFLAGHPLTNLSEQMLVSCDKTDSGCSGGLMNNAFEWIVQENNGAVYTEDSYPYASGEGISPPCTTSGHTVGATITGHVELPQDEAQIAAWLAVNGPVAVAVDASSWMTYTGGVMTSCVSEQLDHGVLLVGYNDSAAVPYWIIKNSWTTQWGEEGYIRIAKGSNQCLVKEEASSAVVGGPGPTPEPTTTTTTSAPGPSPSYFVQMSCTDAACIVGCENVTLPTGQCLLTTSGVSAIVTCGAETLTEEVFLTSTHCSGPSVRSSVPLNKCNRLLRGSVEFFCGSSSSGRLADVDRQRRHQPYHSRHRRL
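Purified cruzain at 1.5 nM, pre-incubated 15 min with compound at room temperature in 100 mM sodium acetate pH 5.5, 5 mM DTT, 0.00005% Triton X-100. Reaction started with 2 uM Z-FR-AMC; AMC fluorescence increase over 60 s gives rate.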
Cruzain Triton – inhibitors of Trypanosoma cruzi cruzain with detergent; Potency, µM, for inactives: max response, negative = inhibition, actives largely listed as inhibitors; 0.43% of 200,000 active; purified cruzain, Z-FR-AMC fluorescence, 0.01% Triton; P25779; active = well fitted curve in the direction sought with a large enough effect; inconclusive = small, poorly fitted or top-dose-only effect, or another doubt; inactive = no such curve, though single readings can be large; an effect the other way counts as inactive or inconclusive;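 also: plate controls were neutral wells for no effect and buffer without enzyme for full effect; nearly all actives have a fitted effect of over 40% in size; top concentration of the series not given in the record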
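Read-out: AMC fluorescence (360 nm excitation, 450 nm emission), four reads over 2 min, first-to-third difference used. Conditions: cruzain 1.5 nM, Z-FR-AMC 2 uM, pH 5.5 acetate, 5 mM DTT, 0.01% Triton X-100.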
RE007 growth inh – less growth of the S. pombe RE007 Vpr strain. S. pombe RE007 Vpr strain, BacTiter-Glo ATP luminescence, 24 h; control for the full effect not named in the record. Potency, µM (top dose mostly 92.2 µM), for inactives: top-dose activity change, negative = less growth. 0.21% of 360,000 active. AID 651644; active = well fitted falling curve with a large enough effect; inconclusive = small, poorly fitted or top-dose-only effect; inactive = no such curve, though single readings can be large or run the other way;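 also: % is scaled to controls: 0 for no effect and ±100 for the full control effect; nearly all actives have a fitted effect of over 50% in size; the assay follows cell death caused by Vpr and the record does not say whether a fall means rescue or toxicity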
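Fission yeast RE007 carrying one integrated HIV-1 vpr copy, seeded at OD 0.01 in PMG+AL medium with 23 nL pinned compound. Grown 24 h at 30 degrees; viability read by BacTiter-Glo luminescence after 5 min.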
MARV entry inh – blocks Marburg virus binding to or entry into cells | AID 540276 | Potency, µM (series often up to 37.8 µM), for the others: at the top dose activity change, negative = inhibition, hits mostly inhibitors | Marburg virus pseudotyped entry inhibition, cell reporter; control for the full effect not named in the record; about a third of the inactives were read at about 46 µM | 1.8% of 300,000 active; active = well fitted inhibition curve with a large enough effect; inconclusive = small, poorly fitted or top-dose-only effect, or effect the other way; inactive = flat fitted curve, though single readings scatter; tested in HEK293 cells; about a fifth of its hits are not listed in these tables; also: % is scaled to controls: 0 for no effect and ±100 for the full control effect; luciferase read-out
NS1 inh – blocks influenza NS1 protein function | S. cerevisiae slowed by influenza A NS1, growth recovery by OD600 | Potency, µM (highest dose often 46.1 µM), for the others: at the top dose activity, positive = more growth | 0.4% of 270,000 active; also: actives are rising curves; nearly all actives have a fitted effect of over 50% in size
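Compounds were scored for reversing the slow growth caused by influenza A NS1 in S. cerevisiae, measured by optical density at 600 nm. Assay medium contained 2% galactose at pH 6.0; NS1-free yeast of the same strain were the positive control.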
2A StopGo – lowers the luciferase signal of an FMDV 2A StopGo reporter. human cells with a luciferase reporter of 2A StopGo recoding; control for the full effect not named in the record. Potency, µM (series often up to 57.9 µM), for the others: at the highest dose signal change, negative = less light. 1.2% of 410,000 active. AID 1159524; active = well fitted falling curve with a large enough effect; inconclusive = small, poorly fitted or top-dose-only effect; inactive = no such curve, though single readings can be large or run the other way; tested in HEK293T cells; also: % is scaled to controls: 0 for no effect and ±100 for the full control effect; nearly all actives have a fitted effect of over 45% in size; luciferase light after 4 h
Lassa entry inh – inhibitors of Lassa virus binding or cell entry. Potency, µM (series often up to 37.9 µM), inactives show at the top dose activity change, negative = inhibition, actives largely listed as inhibitors. 1.2% of 300,000 active. Lassa virus pseudotype entry inhibition, cell reporter; control for the full effect not named in the record; active means well fitted inhibition curve with a large enough effect; inconclusive means small, poorly fitted or top-dose-only effect, or effect the other way; inactive means flat fitted curve, though single readings scatter; tested in HEK293 cells; also: % is scaled to controls: 0 for no effect and ±100 for the full control effect; nearly all actives have a fitted effect of over 50% in size; luciferase read-out
* = called active by the depositor; ? = inconclusive; . = not tested or not shown; & = joins results of further samples; [ ] = dose if it differs, or a comment. Unless noted, calls follow the shape of the dose curve; as a rule, active means well fitted rising curve with a large enough effect; inconclusive means small, poorly fitted or top-dose-only effect; inactive means no such curve, though single readings can be large or run the other way. Potency is read from the fitted curve at half-maximal effect.

smiles | SARS PLP yeast | Cruzain noTriton | Cruzain Triton | RE007 growth inh | MARV entry inh | NS1 inh | 2A StopGo | Lassa entry inh
COc1ccc(C)cc1NC(=O)COC(=O)c1ccc([N+](=O)[O-])o1 | -19% | . | . | 8% | 20%[46.1 µM] | . | -10% | -15%
CC(C)(C)c1nnc(NC(=O)Cc2ccc(Br)cc2)s1 | 12% | 6% | -8.2% | 18% | -5% | 26% | -24% | 0%
O=C(Nc1nccs1)c1ccc(-c2ccccc2Cl)o1 | -18% | ? | -8.7% | -5% | ? | 3% | . | ?
O=C(NCC1CCOCC1)c1ccc(OC2CCN(Cc3ccccn3)CC2)cc1 | -2% | . | . | -15% | . | 6% | 4% | .
CC1CCCN(C(=O)CSc2ncccn2)C1 (stereo not drawn) | 1% | . | . | 11% | -11%[46.1 µM] | 14% | 0% | 10%
CC(C)c1ccc(OCC(=O)Nc2ccc3oc(=O)ccc3c2)cc1 | -4% | . | . | 0% | -7%[46.1 µM] | -3% | -22% | .
CC1CCC2(CC1)NC(=O)c1ccccc1O2 (stereo not drawn) | 2% | 14% | -2.7% | -3% | -18% | -13% | -27% | -5%
CCCc1[nH]nc2c1C(CCC)C(C#N)=C(N)O2 (stereo not drawn) | -1% | 8% | -1.0% | 12% | -11%[46.1 µM] | -6% | ? | -12%
CC1CC(C)CN(S(=O)(=O)N2CCCC(C(=O)NCc3ccccc3Cl)C2)C1 (stereo not drawn) | -1% | . | . | 3% | . | ? | -5% | .
Cc1ccc(OCc2ccc([N+](=O)[O-])cc2)c([N+](=O)[O-])n1 | -3% | . | . | 1% | . | -2% | 58%[activator] | .
CCOc1ccc(C2CC(c3cccc(C)c3)n3ncnc3N2)cc1 (stereo not drawn) | 3% | 2% | -5.4% | 8% | . | -77% | -25% | .
Cc1ccc(-c2cc(C(=O)Nc3ccc(S(=O)(=O)Nc4nccs4)cc3)c3ccccc3n2)c(C)c1 | 0% | ? | -7.9% | 15% | -11% | 18% | 35%[activator] | -7%
CCN(C(=O)COC(=O)c1nc(Cl)ccc1Cl)C1CCS(=O)(=O)C1 (stereo not drawn) | -2% | . | . | 4% | 19% | . | -25% | 23%
O=C1CC(c2ccccc2)Cc2[nH]c(=O)c(-c3nc(-c4ccc(Cl)c(Cl)c4)cs3)cc21 (stereo not drawn) | . | -24% | -1.8% | . | ? | . | 1% | 1%[46.1 µM]
C=CCOc1ccc(CN(C)CC(=O)Nc2ccc3c(c2)CCC3)cc1 | 0% | . | . | -14% | ? | . | -25% | ?
O=C(Nc1ccc(N2CCCCC2)cc1)c1cc(S(=O)(=O)N2CCOCC2)ccc1F | 3% | . | . | 5% | -2% | . | ? | -3%
O=C(CN1C(=O)C(=O)c2ccccc21)c1ccccc1 | 7% | . | . | 5% | . | -1% | -1% | .
COc1cccc(-n2nnc3c(=O)n(CC(=O)OCc4ccccc4)cnc32)c1 | ? | -6% | -5.5% | -9% | 17% | 13% | . | 18%
COc1ccc(-c2noc(CNC(=O)c3ccccc3Br)n2)cc1 | . | 5% | -0.9% | . | -2%[46.1 µM] | . | -18% | -17%[46.1 µM]
CN(C)C(CNC(=O)Cc1cccc(C(F)(F)F)c1)c1ccco1 (stereo not drawn) | 1% | . | . | 0% | 4%[46.1 µM] | . | 9% | 12%
Cc1ccc(OCCn2c(Br)nc3c2c(=O)n(C)c(=O)n3C)cc1 | 4% | 8% | -1.1% | -15% | 2% | 7% | 0% | -6%
Cc1cccc(OCc2nnc(NC(=O)Cc3cccs3)s2)c1 | -6% | ? | 0.0% | 14% | -1% | 4% | 12% | -7%
COc1ccc(NC(=O)CSc2nnc(-c3cccc(O)c3)o2)cc1 | 1% | . | . | 5% | ? | -7% | 15% | -27%[46.1 µM]
Cc1cccc(NCC(=O)N/N=C/c2ccc(Br)cc2)c1 | 0% | . | . | -3% | -18%[46.1 µM] | 2% | -7% | ?
Cc1cc2n(n1)C(c1ccccc1Cl)Nc1ccccc1-2 (stereo not drawn) | -6% | 2% | -7.3% | -13% | ? | -51% | -29% | ?
COc1cccc(NC(=S)N(CCc2c(C)[nH]c3ccccc23)Cc2cccs2)c1 | 1% | ? | -1.3% | -10% | ? | 11% | -5% | ?
COC(=O)c1ccc(=O)n(Cc2ccco2)c1 | -16% | -10% | -0.6% | 1% | -2%&-2% | -3% | -16% | -15%
CC1=Nc2cccc3cccc(c23)N1 | -8% | -16% | -2.3% | -25% | ? | -4% | -25% | 1%
CC(C)C(=O)Nc1cccc(-c2nc3ncccc3o2)c1 | -6% | . | . | 16% | . | -9% | 18% | .
N#Cc1c(-c2ccccc2)ccn(Cc2ccccc2Cl)c1=O | -2% | -1% | -3.2% | 30% | 9% | -2% | -6% | -19%

As a short view, some entries already given:
smiles | SARS PLP yeast | Cruzain noTriton | Cruzain Triton | RE007 growth inh | MARV entry inh | NS1 inh | 2A StopGo | Lassa entry inh
Cc1ccc(OCc2ccc([N+](=O)[O-])cc2)c([N+](=O)[O-])n1 | -3% | . | . | 1% | . | -2% | 58%[activator] | .
CCOc1ccc(C2CC(c3cccc(C)c3)n3ncnc3N2)cc1 (stereo not drawn) | 3% | 2% | -5.4% | 8% | . | -77% | -25% | .
Cc1ccc(-c2cc(C(=O)Nc3ccc(S(=O)(=O)Nc4nccs4)cc3)c3ccccc3n2)c(C)c1 | 0% | ? | -7.9% | 15% | -11% | 18% | 35%[activator] | -7%
CCN(C(=O)COC(=O)c1nc(Cl)ccc1Cl)C1CCS(=O)(=O)C1 (stereo not drawn) | -2% | . | . | 4% | 19% | . | -25% | 23%

(more compounds)
smiles | SARS PLP yeast | Cruzain noTriton | Cruzain Triton | RE007 growth inh | MARV entry inh | NS1 inh | 2A StopGo | Lassa entry inh
Cc1ccn2c(C(=O)c3ccc(Cl)cc3)cnc2c1 | 2% | -4% | -13% | -12% | ? | -17% | -12% | 18µM*
Cc1cc(NC(=O)c2cc(-c3ccco3)on2)no1 | -5% | 9% | 3.7% | 7% | 8% | -70% | 52%[activator] | 9%
Cc1cccc(Cn2cc(/C=C(/C#N)C(=O)Nc3cccc(Cl)c3)c3ccccc32)c1 | . | 3.2µM* | -2.1% | . | . | . | -27% | -17%[46.1 µM]
CN(CC(=O)Nc1ccccc1Br)C(=O)c1ccccc1-c1nc2ccccc2s1 | -12% | . | . | 19% | -29% | -23% | -23% | ?
COc1ccc(N/C(=C/[N+](=O)[O-])SC)cc1 | 2% | . | . | 19% | -1%[46.1 µM] | . | -20% | ?
CCOCCCN(C(=O)CNC(=O)c1ccco1)C(C(=O)NC1CCCC1)c1ccccc1C (stereo not drawn) | -7% | 0% | 4.0% | 2% | -2%&-2% | 14% | 18% | 20%
CC(C)Cn1c2c(c(=O)[nH]c1=O)C(NS(=O)(=O)c1ccc(Cl)cc1)(C(F)(F)F)C(=O)N2 (stereo not drawn) | 1% | . | . | -23% | 5%[46.1 µM] | 2% | -20% | 25%[46.1 µM]
CCC1(C)NC(C(=O)O)Cc2c1[nH]c1ccccc21 (stereo not drawn) | 3% | . | . | 9% | . | 6% | 0% | .
CN1CCN(c2nc(-c3ccc(Cl)cc3Cl)nc3ccccc23)CC1 | -1% | . | . | -19% | . | -6% | -13% | .
Cc1ccc(NC(=O)CSc2ncc3c(n2)-c2ccccc2N(C)S3(=O)=O)c(Cl)c1 | . | -4% | 2.8% | . | . | . | -25% | .
CS(=O)(=O)N(CC(=O)NC1CC2CCC1C2)c1cccc(C(F)(F)F)c1 (stereo not drawn) | 6% | 21% | -0.9% | 5% | -16% | 6% | -7% | -19%
Cc1ccc(C)c(NC(=O)CSc2nnc(-c3ccncc3)o2)c1 | 16% | . | . | 24% | 2%[46.1 µM] | 2% | -4% | 3%
COc1cc(Cl)c(S(=O)(=O)N2CCN(c3c(C)cccc3C)CC2)cc1Cl | . | 20µM* | -3.1% | . | 20%[46.1 µM] | . | -18% | 12%[46.1 µM]
CCOc1ccc(C=NNc2ccc(S(=O)(=O)Nc3ccccc3C(=O)O)cc2[N+](=O)[O-])cc1OC | 3% | . | . | 15% | -13% | . | -7% | 5%
CC(C)CCN1CCN(Cc2cccc(-n3cccn3)c2)CC1CCO (stereo not drawn) | 1% | . | . | -15% | . | 0% | -1% | .
Nc1scc2c(C(=O)N/N=C/c3ccc(Cl)cc3)nn(-c3ccccc3)c(=O)c12 | -1% | ? | -4.5% | -11% | ? | 21% | -15% | ?
O=C(NC(=S)N1CCN(Cc2ccccc2)CC1)c1ccco1 | 7% | . | . | 11% | 12%[46.1 µM] | 1% | -3% | 1%[46.1 µM]
CN(C)S(=O)(=O)c1ccc(Oc2ccc(S(=O)(=O)N(C)C)cc2)cc1 | -7% | 7% | -2.0% | 2% | ? | -26% | -22% | ?
COc1ccc(/C=C2/SC(=O)N(CCC(=O)Nc3ccc(S(=O)(=O)Nc4nccs4)cc3)C2=O)cc1 | ? | -8% | 0.3% | 0% | 21% | -3% | 65%[activator] | 0%
N=c1oc2ccccc2cc1C(=O)N/N=C/c1ccccc1 | 2% | -24% | -4.3% | 7% | -4% | 24% | 4% | 1%
CCC(C)SCc1nc2ccccc2[nH]1 (stereo not drawn) | -2% | 2% | -0.2% | -11% | 7% | -37% | 2% | 2%
COc1cc(/C=C/C(=O)Nc2ccc3[nH]c(=O)[nH]c3c2)cc(OC)c1OC | 1% | . | . | 27% | -7% | 10% | -19% | 11%
CCCCc1nnc(NC(=O)C2CC(=O)N(c3ccc(C)cc3)C2)s1 (stereo not drawn) | 1% | . | . | -11% | -2%[46.1 µM] | -3% | 22% | 1%[46.1 µM]
O=C(CCc1ccccc1)NCCC1=CCCCC1 | -14% | -4% | -2.0% | 0% | 8% | 11% | 35%[activator] | 5%
CCOc1ccc(NCc2cc3c(C(C)(C)C)nn(-c4ccccc4)c3[nH]c2=O)cc1 | 7% | 0% | -2.6% | 12% | ? | -66% | . | -29%

Screening results deposited in PubChem BioAssay by National Center for Advancing Translational Sciences (NCATS).
